# High-throughput results: PubChem BioAssay, National Center for Advancing Translational Sciences (NCATS)
# RE007 growth inh: less growth of the S. pombe RE007 Vpr strain. S. pombe RE007 Vpr strain, BacTiter-Glo ATP luminescence, 24 h; control for the full effect not named in the record. AID 651644. 360,000 compounds, 0.21% hits. Potency, µM (top dose mostly 92.2 µM), inactives show at the highest dose activity change, negative = less growth; active = well fitted falling curve with a large enough effect; inconclusive = small, poorly fitted or top-dose-only effect; inactive = no such curve, though single readings can be large or run the other way;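 note: % is set by controls: 0 for no effect and ±100 for the full control effect; nearly all actives have a fitted effect of over 50% in size; the assay follows cell death caused by Vpr and the record does not say whether a fall means rescue or toxicity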
#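 Fission yeast RE007 carrying one integrated HIV-1 vpr copy, seeded at OD 0.01 in PMG+AL medium with 23 nL pinned compound. Grown 24 h at 30 degrees; viability read by BacTiter-Glo luminescence after 5 min.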
# MARV entry inh: inhibitors of Marburg virus binding or cell entry; Marburg virus pseudotyped entry inhibition, cell reporter; control for the full effect not named in the record; about a third of the inactives were read at about 46 µM; Potency, µM (highest dose often 37.8 µM), for the others: at the highest dose activity change, negative = inhibition, hits mostly inhibitors; 300,000 compounds, 1.8% hits; active = well fitted inhibition curve with a large enough effect; inconclusive = small, poorly fitted or top-dose-only effect, or effect the other way; inactive = flat fitted curve, though single readings scatter; tested in HEK293 cells; about a fifth of its hits are not listed in these tables; note: % is set by controls: 0 for no effect and ±100 for the full control effect; luciferase read-out
# SARS PLP yeast: blocks SARS-CoV papain-like protease in a yeast assay | Potency, µM (series often up to 32.9 µM), for the others: at the top dose activity, positive = growth rescue | 330,000 compounds, 0.19% hits | S. cerevisiae expressing SARS-CoV PLpro, growth rescue; control for the full effect not named in the record | AID 485353; active means well fitted rising curve with a large enough effect; inconclusive means small, poorly fitted or top-dose-only effect; inactive means no such curve, though single readings can be large or run the other way; note: 0% is about no effect; nearly all actives have a fitted effect of over 55% in size; growth read by luminescence after 48 h
# 2A StopGo: FMDV 2A StopGo reporter, luciferase signal. human cells with a luciferase reporter of 2A StopGo recoding; control for the full effect not named in the record. Potency, µM (top dose mostly 57.9 µM), for inactives: at the highest dose signal change, negative = less light. 410,000 compounds, 1.2% hits; active = well fitted falling curve with a large enough effect; inconclusive = small, poorly fitted or top-dose-only effect; inactive = no such curve, though single readings can be large or run the other way; tested in HEK293T cells; note: % is set by controls: 0 for no effect and ±100 for the full control effect; nearly all actives have a fitted effect of over 45% in size; luciferase light after 4 h
# NS1 function inh: inhibitors of influenza NS1 protein function | S. cerevisiae slowed by influenza A NS1, growth recovery by OD600 | Potency, µM (series often up to 46.1 µM), inactives show at the highest dose activity, positive = more growth | 270,000 compounds, 0.4% hits | AID 2326; active means well fitted rising curve with a large enough effect; inconclusive means small, poorly fitted or top-dose-only effect; inactive means no such curve, though single readings can be large or run the other way; note: nearly all actives have a fitted effect of over 50% in size
#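 Compounds were scored for reversing the slow growth caused by influenza A NS1 in S. cerevisiae, measured by optical density at 600 nm. Assay medium contained 2% galactose at pH 6.0; NS1-free yeast of the same strain were the positive control.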
# Cruzain inh Det: blocks cruzain activity in presence of Triton detergent; Potency, µM, for inactives: max response, negative = inhibition, usual class: inhibitors; purified cruzain, Z-FR-AMC fluorescence, 0.01% Triton; 200,000 compounds, 0.43% hits; AID 1478;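 note: plate controls were neutral wells for no effect and buffer without enzyme for full effect; nearly all actives have a fitted effect of over 40% in size; top concentration of the series not given in the record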
# Target sequence (P25779 123-467 limits assumed): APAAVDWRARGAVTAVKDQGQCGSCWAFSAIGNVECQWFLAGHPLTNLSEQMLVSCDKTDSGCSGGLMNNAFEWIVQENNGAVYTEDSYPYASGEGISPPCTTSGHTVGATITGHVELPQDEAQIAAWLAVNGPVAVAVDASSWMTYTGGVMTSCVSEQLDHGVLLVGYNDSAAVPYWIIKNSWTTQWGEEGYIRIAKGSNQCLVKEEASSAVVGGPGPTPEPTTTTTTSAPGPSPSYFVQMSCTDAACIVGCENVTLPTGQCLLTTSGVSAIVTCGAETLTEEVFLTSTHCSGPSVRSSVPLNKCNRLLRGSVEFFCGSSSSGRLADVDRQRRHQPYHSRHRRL
#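 Detergent-containing run (0.01% Triton X-100) in acetate buffer pH 5.5 with 5 mM DTT: enzyme at 1.5 nM final, 15 min compound preincubation at room temperature, then 2 uM Z-FR-AMC substrate. Activity taken as 60 s fluorescence increase at 360/450 nm.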
# LASV entry inh: Lassa virus entry inhibition; Lassa virus pseudotype entry inhibition, cell reporter; control for the full effect not named in the record; 300,000 compounds, 1.2% hits; AID 540256; Potency, µM (doses to about 37.9 µM), without a hit: at the top dose activity change, negative = inhibition, most hits filed as inhibitors; active means well fitted inhibition curve with a large enough effect; inconclusive means small, poorly fitted or top-dose-only effect, or effect the other way; inactive means flat fitted curve, though single readings scatter; tested in HEK293 cells; note: % is set by controls: 0 for no effect and ±100 for the full control effect; nearly all actives have a fitted effect of over 50% in size; luciferase read-out
# Cruzain inh noDet: cruzain (T. cruzi) inhibition without detergent; purified cruzain, Z-FR-AMC fluorescence, no detergent; Potency, µM, inactives show max response, negative = inhibition, hits mostly inhibitors; 200,000 compounds, 2.3% hits; AID 1476;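 note: plate controls were enzyme without inhibitor for no effect and buffer without enzyme for full effect; nearly all actives have a fitted effect of over 40% in size; top concentration of the series not given in the record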
#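 Purified cruzain at 1.5 nM, pre-incubated 15 min with compound at room temperature in 100 mM sodium acetate pH 5.5, 5 mM DTT, 0.00005% Triton X-100. Reaction started with 2 uM Z-FR-AMC; AMC fluorescence increase over 60 s gives rate.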
# Starred values were filed as active, the others as inactive; ? = inconclusive; nt = no result given; & = joins results of further samples; [ ] = dose if it differs, or a comment. Unless noted, calls come from the whole dose curve; as a rule, active = well fitted curve in the direction sought with a large enough effect; inconclusive = small, poorly fitted or top-dose-only effect, or another doubt; inactive = no such curve, though single readings can be large; an effect the other way counts as inactive or inconclusive. Potency is the fitted concentration of half-maximal effect.
mol,RE007 growth inh,MARV entry inh,SARS PLP yeast,2A StopGo,NS1 function inh,Cruzain inh Det,LASV entry inh,Cruzain inh noDet
CC(NC(=O)c1ccc(F)cc1)C(c1cccs1)N1CCN(C)CC1 (stereo not drawn),0%,-2%,-24%,16%,8%,0.9%,-25%[14.3 µM],-13%
Cc1ccc(C)c(C(=O)COC(=O)CCCC(=O)Nc2cc(C(F)(F)F)ccc2Cl)c1,0%,3%[46.1 µM],20%,1%&16%,2%,-8.9%&-7.4%,?,-1%&1%
O=C(NC1CCCCCC1)C1CCCN(S(=O)(=O)c2cnc[nH]2)C1 (stereo not drawn),2%,nt,0%,-6%,?,0.5%,nt,8%
C[C@@H]1CN(C2CCN(Cc3nc(CC4CC4)no3)CC2)C[C@H](C)O1,6%,-1%,1%,11%,6%,nt,-2%,nt
N=c1sccn1CC(=O)Nc1cc(Cl)ccc1Oc1ccccc1,8%,?,6%,-30%,1%,-1.7%,?,-7%
Cc1cc(C)n2nc(SCC3COc4ccccc4O3)nc2n1 (stereo not drawn),18%,?,4%,42%[activator],?,-3.5%,3%,-3%
O=C(c1cc(-c2ccc(Br)cc2)on1)N1CCc2ccccc2C1,27%,3%[46.1 µM],2%,27%,24%,nt,22%,nt
CC1CCN(c2ccc3nnc(CCC(=O)Nc4cc(F)ccc4F)n3n2)CC1,7%,-20%[46.1 µM],-2%,-8%,1%,nt,14%[46.1 µM],nt
COc1cc(/C=C2/C(=N)N3C(=NC2=O)SN=C3S(C)(=O)=O)ccc1OS(=O)(=O)c1ccc(C)cc1,4%,nt,?,3%,10%,nt,nt,nt
Cc1ccc(S(=O)(=O)Nc2c(C(=O)O)[nH]c3ccccc23)c(C)c1,5%,nt,-4%,18%,12%,nt,nt,nt
Cc1sc(NC(=O)C2CCCO2)c(C(N)=O)c1C (stereo not drawn),-2%,-2%,-7%,27%,7%,-16%,8%,-20%
CCCCc1c(O)nc(SCC(=O)N2CCCCC2)[nH]c1=O,33%,9%,1%,-21%,4%,nt,21%,nt
O=C(NNC(=O)C12CC3CC(CC(Br)(C3)C1)C2)c1ccccc1F,1%,14%,6%,-10%,nt,nt,-4%,nt
CCOC(=O)c1[nH]c2ccc(C(=O)OC)cc2c1C(=O)OCC,-14%,nt,-18%,?,-56%,nt,nt,nt
C/C(=N\NC(=O)c1ccccc1Cl)c1c(O)n(C2CCCCC2)c(=O)[nH]c1=O,-4%,nt,-4%,-9%,3%,nt,nt,nt
Cc1cccc(C(=O)Oc2ccc(/C=N/NC(=O)c3cc(O)cc(O)c3)cc2)c1,9%,2%,7%,11%,-10%,nt,-14%,nt
Cc1cccc(NC(=O)CN2C(=O)CC(c3ccccc3)Sc3ccccc32)c1 (stereo not drawn),nt,6%[46.1 µM],nt,?,nt,-5.4%,nt,1%
COc1ccccc1OCC(=O)Nc1ccc(S(=O)(=O)Nc2onc(C)c2C)cc1,0%,-1%[46.1 µM],2%,-12%,-2%,nt,-1%[46.1 µM],nt
O=C(COC(=O)c1sc2ccccc2c1Cl)Nc1ncc(Cl)cc1Cl,3%,1%[46.1 µM],18%,-6%,11%,-4.6%,1%,?
N#Cc1cccc(Cn2cc(C(F)(F)F)ccc2=O)c1,22%,?,-1%,10%,-1%,nt,0%,nt
COCCN1C(=O)C(O)=C(C(=O)c2ccco2)C1c1cccc(Oc2ccccc2)c1 (stereo not drawn),1%,-5%,-7%,54%[activator],?,-6.4%,1%,?
COc1ccc(NS(=O)(=O)c2c(C(=O)N3CCCCCC3)c(C)n(C)c2C)cc1,23%,?,3%,13%,0%,nt,5%[46.1 µM],nt
O=C(Nc1cccc(NC(=O)C2C3CC4OC(=O)C2C4C3)c1)c1ccccc1 (stereo not drawn),1%,-12%[46.1 µM],1%,1%,-1%,nt,nt,nt
O=C(NC1CCCCCC1)c1ccc([N+](=O)[O-])s1,45µM*,?,-4%,16%,nt,nt,11%,nt
C(=C\c1nc(N2CCCC2)c2ccccc2n1)/c1ccccc1,-16%,7.1µM*,0%,?,2%,4.0%,?,2%
COc1ccc2cc(-c3cc(C(=O)OCC(=O)NC4CCS(=O)(=O)C4)c4ccccc4n3)ccc2c1 (stereo not drawn),0%,3.2µM*,-11%,-22%,-17%,-13%,3.5µM*,4%
CC(C)(C)c1ccc(-c2nc3[nH]c(=O)cc(NC(=O)c4ccco4)n3n2)cc1,0%,nt,-2%,5%,13%,nt,nt,nt
CCCC1=Nc2cc(C(=O)NC3CCCCC3)ccc2Sc2ccc(C)cc21,nt,nt,nt,-3%,nt,1.6%,?,-18%
Cc1c(C(c2ccc([N+](=O)[O-])cc2)c2c(C)n(C)n(-c3ccccc3)c2=O)c(=O)n(-c2ccccc2)n1C,12%,-11%,-4%,-2%,25%,1.6%,8%,10%
COc1cccc(OC)c1C(=O)NC(=O)NNc1cc(C(F)(F)F)cc(C)n1,1%,2%[46.1 µM],-1%,-9%,11%,nt,?,nt
COc1ccc2nc3sc(C(=O)N4CCN(c5ccccc5)CC4)cc3cc2c1,nt,-14%[46.1 µM],nt,21%,nt,-2.3%,1%[46.1 µM],-4%
Cc1cccc(N2CCN(C(=O)Cc3ccc(-n4c(=O)[nH]c5ccsc5c4=O)cc3)CC2)c1C,-5%,?,-11%,?,25%,-3.6%,-11%,23%
CN(Cc1ccccc1F)C(=O)c1ccc2c(=O)n3c(nc2c1)CCC3,-3%,23%,-10%,31%[activator],nt,nt,4%,nt
CCCc1cc2c(=O)c(-c3ccccn3)coc2cc1OC,-1%,0%,1%,nt,-18%,0.1%,?,3%
CC(=O)NC(C(=O)N1CCC(c2nc3ccccc3s2)CC1)C(C)C (stereo not drawn),-5%,nt,1%,-18%,-1%,nt,nt,nt
O=C(c1ccc(NS(=O)(=O)c2ccccc2)cc1)N1CCCC1,-1%,7%,0%,36%[activator],1%,8.3%,-1%,-3%
COCCCNC(=O)c1ccc(N(C)S(=O)(=O)c2ccc(OC)cc2)cc1,1%,16%,1%,-25%,-9%,3.4%,-23%,-11%
Cc1cc2c(c(N)n1)c(=O)oc1ccccc12,2%,13%,-4%,-21%,-15%,-1.3%,21%,-23%
O=C(Nc1nc(NC(=O)c2ccco2)n(-c2ccccc2)n1)c1ccccc1,1%,?,-5%,nt,-8%,4.9%,?,20%
Cc1ccc(CNC(=O)C2CCC(=O)N(CCc3ccc(Cl)cc3)C2)s1 (stereo not drawn),-8%,-16%,0%,-6%,-11%,nt,-17%,nt
COc1ccc(S(=O)(=O)N2CCOC23CCN(C(=O)c2ccccc2Br)CC3)cc1,4%,nt,-3%,16%,2%,nt,nt,nt
O=C1OCc2cc(-n3cccc3)ccc21,-2%,?,-4%,23%,nt,nt,5%,nt
CC1(C)CN(c2ccc(N3CC(C)(C)C3=O)cc2)C1=O,14%,15%[46.1 µM],-2%,26%,nt,nt,8%,nt
O=C(Cc1c(C(=O)O)[nH]c2ccccc12)Nc1ccc2c(c1)OCO2,5%,8%,0%,15%,13%,-2.1%,-2%,-14%
CC(=O)c1nn(-c2ccccc2)cc1C(=O)c1ccc(Br)cc1,-10%,?,13%,-6%,4%,-2.9%,-17%,?
CC1=C(C(=O)N2CCCC(C(=O)c3cccc(C(F)(F)F)c3)C2)OCCO1 (stereo not drawn),59%,nt,-1%,-29%,6%,nt,nt,nt
COc1ccc(-c2c(C)oc3c(CN4CCCC(C)C4)c(O)ccc3c2=O)cc1OC (stereo not drawn),-16%,?,1%,-18%,-3%,nt,11%[46.1 µM],nt
COC(=O)C1=C(C(=O)OC)SC(=C2C(=S)C(C)(C)N(C(=O)CC(C)C)c3ccccc32)S1,-12%,-10%,15%,0%,-4%,-2.1%,-10%,?
COc1ccc(S(=O)(=O)N(CCC#N)Cc2ccco2)cc1OC,14%,nt,0%,2%,0%,nt,nt,nt
C=CCSc1nnc(NC(=O)c2ccc(S(=O)(=O)NCC3CCCO3)cc2)s1 (stereo not drawn),13%,6%,2%,35%[activator],4%,3.7%,3%,-14%

# Going on with the list:
mol,RE007 growth inh,MARV entry inh,SARS PLP yeast,2A StopGo,NS1 function inh,Cruzain inh Det,LASV entry inh,Cruzain inh noDet
COc1ccc(S(=O)(=O)NC(C)C(=O)NCc2ccncc2)cc1Cl (stereo not drawn),-11%,1%[46.1 µM],2%,-8%,6%,nt,18%[46.1 µM],nt
O=C(CSc1nnc(Cc2ccccc2)o1)NCc1ccc2c(c1)OCO2,17%,-4%[46.1 µM],-2%,3%,nt,nt,13%,nt
CC1CCc2nc3ncn(Cc4ccccc4C#N)c(=O)c3cc2C1 (stereo not drawn),nt,nt,nt,-10%,nt,-1.2%,4%[46.1 µM],-11%
CCOc1cccc(N(C(=O)CCC(=O)Nc2cc(C)on2)C(C(=O)NC(C)(C)C)c2ccc(OC)cc2)c1 (stereo not drawn),-2%,?,1%,-13%,-4%,nt,-4%[46.1 µM],nt
O=C1C2C3C=CC(CO)(O3)C2C(=O)N1c1ccc(-c2ccccc2)cc1 (stereo not drawn),nt,nt,-31%,nt,-163%,-2.5%,nt,-19%
COC(=O)c1cc(C(=O)OC)cc(N2C(=O)CN=C2Nc2nc(C)cc(C)n2)c1,-12%,-2%,8%,?,0%,4.8%,4%,5%
Cc1cc2nc(-c3ccc(SCC(=O)Nc4nccs4)nc3)[nH]c2cc1C,3%,22%,-23%,-7%,2%,-10%,?,-24%
Cc1ccc(Nc2nnc(SC3CCOC3=O)s2)c(C)c1 (stereo not drawn),-3%,-6%,7%,-6%,-3%,-5.3%,10%,-1%
Cc1ccc2[nH]c(C)c(CCNC(=O)c3cc4cc(Br)ccc4oc3=O)c2c1,nt,-3%[46.1 µM],nt,-22%,nt,-3.6%,11%[46.1 µM],1%
CC(C)CCNc1cc(=O)n(C)c(=O)n1C,11%,26%,-4%,-9%,4%[9.22 µM],9.0%,3%,0%
CCN(c1cccc(C)c1)S(=O)(=O)c1ccc2[nH]cc(C(=O)NCCCOC)c(=O)c2c1,nt,nt,nt,0%,nt,-12%,-16%[46.1 µM],?
